Source: PubChem (several laboratories)
E coli growth = E. coli growth inhibition, primary screen, OD600; Escherichia coli growth, 23 h; hits give low values; OD600 absorbance (concentration not given with the values); 0.21% of 330,000 active; AID 1053175, 2014;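 active = OD600 absorbance below the run mean of sample wells minus 3.6 SD, in any replicate, cut at about 0.56 in these data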;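 note: stock transfer was 300 nL into about 60 µL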
FGF22 binding = binders of human FGF22 protein, primary screen, FGF22 synaptogenesis inhibitor project, biophysical, thermal shift, single point | Fibroblast growth factor 22 (Homo sapiens), Q9HCT0 | recombinant FGF22 thermal shift, SYPRO orange fluorescence; percent of sucrose octasulfate shift, DMSO zero | calls only at 9.99 µM | 1.5% of 340,000 active;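 active = melting point raised past a set limit in the mean and every replicate; inconclusive = no clear call; three in four hits are not shown here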
Target sequence (Q9HCT0 whole entry, looked up): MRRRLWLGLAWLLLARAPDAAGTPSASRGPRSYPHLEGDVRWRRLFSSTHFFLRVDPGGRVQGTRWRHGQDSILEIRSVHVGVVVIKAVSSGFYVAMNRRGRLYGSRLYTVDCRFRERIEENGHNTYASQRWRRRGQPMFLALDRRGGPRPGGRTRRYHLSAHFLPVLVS
Vif TR-FRET = inhibitors of Vif binding to APOBEC3G peptide, primary screen, biochemical, TR-FRET, GST-Vif 1-94, biotin-A3G peptide, dose response retest (AID 1117319); 0.57% of 260,000 active; TR-FRET GST-Vif / biotin-A3G peptide binding; higher % means a stronger effect; test concentration not given here; strong numbers were not always called active; Virion infectivity factor (Human immunodeficiency virus type 1 group M subtype B (isolate …; one-dose inhibition, %; IC50 in µM for titrated hits;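 active = above the screen mean plus three standard deviations and confirmed in dose response; inconclusive = results disagree or hit not tested in dose response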;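 note: Vif residues 1-94 fused to GST binding biotinylated APOBEC3G peptide 110-148; 0% = full assay without inhibitor and 100% = GST in place of GST-Vif; retest series ran down from 100 µM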
HNF4A DNA FP = change in binding of human HNF4A to DNA, primary screen, biochemical, fluorescence polarization, FITC-DNA; Hepatocyte nuclear factor 4-alpha (Homo sapiens), P41235; 1 h; activity change, % at 10 µM; 0.3% of 360,000 active; AID 1224865, 2016; in the data active = activity change above about 30%, passing the limit was not always enough;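 note: controls were the assay level and a saturating level of protein; the project sought stronger binding though the title names inhibitors; some compounds called inactive have numbers as strong as hits; positive values seem to mean higher polarization but the record does not say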
MLL AF4-AF9 inh = inhibitors of AF4 peptide binding to AF9, primary screen, biochemical, AlphaScreen, biotin-AF4 peptide, FLAG-AF9, single point; Protein AF-9 (Homo sapiens), P42568; inhibition, % at 10 µM; 0.47% of 350,000 active;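 active = every replicate reaching a set inhibition limit, whatever the replicate mean, cut at about 25% in these data; inconclusive = mean inhibition reaches that limit but some replicates miss it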;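 note: 0% = plate neutral control median and 100% = total signal loss; the record names both 10 and 1 µM as test concentration; the first replicate is given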
Target sequence (P42568 whole entry, looked up): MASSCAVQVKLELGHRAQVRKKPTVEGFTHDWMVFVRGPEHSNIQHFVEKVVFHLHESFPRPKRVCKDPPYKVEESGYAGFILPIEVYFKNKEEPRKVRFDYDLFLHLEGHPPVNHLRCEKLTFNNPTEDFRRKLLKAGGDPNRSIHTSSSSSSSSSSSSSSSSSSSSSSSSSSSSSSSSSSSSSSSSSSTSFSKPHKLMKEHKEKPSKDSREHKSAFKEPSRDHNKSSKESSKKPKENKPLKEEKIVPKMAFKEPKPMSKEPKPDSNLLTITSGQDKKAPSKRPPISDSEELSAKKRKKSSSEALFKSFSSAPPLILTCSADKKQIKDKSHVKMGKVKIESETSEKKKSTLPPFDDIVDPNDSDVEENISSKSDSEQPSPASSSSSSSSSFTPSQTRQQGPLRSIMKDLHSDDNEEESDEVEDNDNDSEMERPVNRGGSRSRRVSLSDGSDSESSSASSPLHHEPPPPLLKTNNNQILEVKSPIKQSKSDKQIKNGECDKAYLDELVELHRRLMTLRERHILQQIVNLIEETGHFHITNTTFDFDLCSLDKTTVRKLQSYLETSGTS
ALR inh = inhibitors of human ALR sulfhydryl oxidase, primary screen, biochemical, H2O2 detection, HRP-luminol luminescence, single point. FAD-linked sulfhydryl oxidase ALR (Homo sapiens), P55789. purified ALR, DTT oxidation. inhibition, % (concentration not given with the values). 3.8% of 290,000 active. AID 485317, 2010;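 active = mean and each replicate at 75% or more; inconclusive = only one of the two met; inactive = neither met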;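 note: stock transfer was 7.5 nL into about 7.5 µL; 0% = neutral wells and 100% = wells with inactivated enzyme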
Target sequence (P55789 whole entry, looked up): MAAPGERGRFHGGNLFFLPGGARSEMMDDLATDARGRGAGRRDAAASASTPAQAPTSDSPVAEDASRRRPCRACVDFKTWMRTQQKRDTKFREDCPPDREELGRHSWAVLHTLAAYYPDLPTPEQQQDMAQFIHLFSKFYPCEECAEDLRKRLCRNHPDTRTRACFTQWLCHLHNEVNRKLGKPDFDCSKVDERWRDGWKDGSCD
Ecoli rRNA inh = reduced GFP signal of wild-type E. coli, primary screen, bacterial rRNA inhibitor project, GFP/RFP fluorescence, OD600, single point. E. coli WT GFP vs humanized-ribosome RFP mutants, 24 h; hits give low values; DMSO median 0, no signal -100. GFP signal change (wild-type ribosome), % (concentration not given with the values). 1.6% of 350,000 active. AID 720706, 2013;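 active = significant combined selectivity score with lowered wild-type GFP, culture density cut under 30%, mutant RFP and density less affected; inactive = any of these conditions unmet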; note: one replicate is shown; some compounds called inactive have numbers as strong as hits
Ecoli rRNA inh OD600 = recorded beside Ecoli rRNA inh, whose call it bears; OD600 change, %; measured here: OD600 growth;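 optical density of the mix in the first replicate; 0 = DMSO median and -100 = no signal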
Ecoli rRNA inh RFP = recorded beside Ecoli rRNA inh, whose call it bears; RFP signal change, %; measured here: RFP humanized mutant strains;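 first replicate; 0 = DMSO median and -100 = no signal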
The depositor's hits bear a star; i = inactive; ? = inconclusive; . = no result given; & = joins results of further samples. Not all compounds are listed. The share of hits here may be higher or lower than overall.

Values run as follows: E coli growth, FGF22 binding, Vif TR-FRET, HNF4A DNA FP, MLL AF4-AF9 inh, ALR inh, Ecoli rRNA inh, Ecoli rRNA inh OD600, Ecoli rRNA inh RFP
#1 C[C@H]1CCCCO[C@H](CN(C)S(=O)(=O)c2ccc(Cl)cc2)[C@@H](C)CN([C@@H](C)CO)C(=O)c2cc(NS(=O)(=O)c3cccs3)ccc2O1
    ., i, ., ., 3.8, ., -3, -2, 2.6
#2 Cc1cc(NC(=O)c2cc([N+](=O)[O-])cc([N+](=O)[O-])c2C)no1
    0.71, i, -6%, -6.9, 1.3, -26, 26, 24, 1.0
#3 Clc1ccc(-n2ncc3c(N4CCCCCC4)ncnc32)cc1
    0.73, i, 8%, -1.8, 5.5, -4, 6, 12, -1.6
#4 COc1ccc(OC)c(NC(=O)Cn2c(=O)oc3ccccc32)c1
    0.68, ., 16%, -0.5, ., 1, ., ., .
#5 CCn1cnc2sc(C(=O)Nc3ccccc3OC)c(C)c2c1=O
    0.69, i, -33%, 0.8, -1.4, -4, 9, 3, -0.8
#6 Cc1noc(C)c1C(=O)N1CCOCC1
    0.72, ., -1%, -1.2, ., 10, ., ., .
#7 O=C(Nc1nc2c(F)cc(F)cc2s1)C1CC1
    0.75, i, ., -3.4, -8.9, 5, 2, 6, -3.8
#8 CC(C)(C)c1ccc(CC(=O)N2CCC2(C)C(=O)NS(=O)(=O)c2cccc(OC(F)F)c2)cc1 (centres undefined)
    ., i, ., -3.0, -0.8, ., -12, -17, 0.0
#9 COc1ccc(S(=O)(=O)N(C)C[C@@H]2Oc3cc(C#CC4CCCCC4)ccc3S(=O)(=O)N([C@@H](C)CO)C[C@@H]2C)cc1
    ., i, 2%, -2.9, 2.3&-0.6&-0.6, ., 10&3, 13&2, -2.0&-2.9
#10 COCCn1c(SCC(=O)NC2CCCCC2)nc2c(c1=O)SCC2
    0.68, i, ., 4.8, -0.9, -14, 3, 3, 4.7
#11 C/C(=N\NC(=O)C1CC1)c1ccccc1O
    ., i, -4%, -1.6, 1.0, -40, 5, 9, -0.7
#12 COCCCNC(=O)C[C@H]1C[C@H](C(=O)N2CCOCC2)[C@@]2(CCC3CCCC3)c3[nH]c4cc(-c5ccco5)ccc4c3CCN2C1=O
    0.68, i, ., 8.6, 9.1, ., 3, 9, 11
#13 COc1ccc(CN(C)C(=O)CSc2nnc(C3CC3)n2C2CC2)cc1
    0.63, i, 6%, -2.1, -0.7, ., 6, 12, 1.4
#14 CC(C)Oc1cc(NC(=O)CS(=O)(=O)CC(=O)N(C)C)c(Cl)cc1Cl
    0.7, ., 4%, 1.4, -1.3, 0, 2, 2, -0.8
#15 Cc1ccc([N+](=O)[O-])c(OCCN2CCCCCC2)c1
    0.69, i, 7%, 0.4, 3.7, 1, 17, 16, -0.1
#16 COc1ccc(CC(N)c2csc(NC(=O)Nc3cc(OC)ccc3OC)n2)cc1 (centres undefined)
    ., i, ., 4.7, 31*, ., -64, -82, -19
#17 Cc1ccc(S(=O)(=O)Nc2ccc3c(c2)C(=O)N([C@H](C)CO)C[C@@H](C)[C@H](CN(C)Cc2ccc(-c4ccccc4)cc2)O3)cc1
    ., i, ., ., 0.1, ., 0, -6, 0.1
#18 COc1ccc(NC(=O)Nc2ccc3c(c2)C(=O)N([C@@H](C)CO)C[C@@H](C)[C@H](CN(C)C(=O)Nc2ccccc2)OCCCC[C@@H](C)O3)cc1
    ., i, ., ., -12, ., -5, -2, -3.1
#19 CCc1ccc(N(CC(=O)NC2CCCCC2)C(=O)CNC(=O)c2ccco2)cc1
    0.64, i, ., -1.1, 1.6, -3, -1, 2, 2.5
#20 O=C(Nc1nc2c(Br)cccc2s1)C1CC1
    0.7, ., ., -1.0, ., 9, ., ., .
#21 CS(=O)(=O)N1CCC(C(=O)NCCC2=CCCCC2)CC1
    0.68, ., -2%, -1.5, ., 2, ., ., .
#22 Cc1cc(N2CCN(C3CCCCC3)CC2)n2nc(C)nc2n1
    0.68, i, 0%, -1.0, -1.1, -5, -1, 6, -1.0
#23 CCOc1ccc(/C=N/NC(=O)CC(=O)NCc2ccccc2)cc1
    ., i, 4%, 2.4, -0.1, -9, -11, -5, 4.0
#24 COc1cc(/C=C(\C#N)c2nc3ccccc3s2)ccc1OCC(=O)Nc1ccccc1
    ., ., -14%, 33*, ., 14, ., ., .
#25 COc1ccc(OCc2cc(C(=O)N(C)C3CCOC3)no2)c(Cl)c1 (centres undefined)
    0.65, i, -4%, 0.0, -1.0, -1, -5, -4, -3.6
#26 CCOC(=O)NC1C=CS(=O)(=O)C1 (centres undefined)
    0.69, ., -5%, -2.4, ., 1, ., ., .
#27 CN(C)c1ccc(C(CNC(=O)c2ccccc2Br)c2c[nH]c3ccccc23)cc1 (centres undefined)
    0.73, i, ., 1.1, 4.1, 1, 0, 12, -0.6
#28 Cc1cc(NC(=O)Cn2nc(C(F)(F)F)c3c2CCC3)no1
    0.69, ., 4%, 4.7, ., -21, ., ., .
#29 CC(=O)Nc1ccc(OCC(O)CN2CCN(S(=O)(=O)c3ccc(NC(C)=O)cc3)CC2)cc1 (centres undefined)
    0.71, i, 10%, 5.8, -8.9, -1, 11, 7, -5.0
#30 CSCCC(NC(=O)c1ccc(Cl)cc1)C(=O)OCC(=O)Nc1ccc(C#N)cc1 (centres undefined)
    0.68, i, 12%, 0.2, 8.3, -3, -8, -8, 4.6
#31 COc1cc(C)c(CN2CCC(n3nccc3NC(=O)C3CCOC3)CC2)cc1C (centres undefined)
    0.7, i, ., -1.1, 2.0, -2, 9, 8, -0.5
#32 CCc1ccc(NC(=O)CN2CCCN(S(=O)(=O)c3ccc(F)cc3)CC2)cc1
    0.64, i, ., 2.4, 1.3, -3, -2, -17, 5.7
#33 COCC(=O)N1CCCCN2[C@H](CO)[C@H](c3ccc(C#Cc4ccccc4)cc3)[C@@H]2C1
    ., i, ., ., -3.9, ., 6, -4, 6.8
#34 COC(=O)c1cn(CC(=O)NC2CCCCC2)c2ccccc12
    0.72, ., -1%, -4.0, ., ., ., ., .
#35 COCC(C)NC(=O)/C=C/c1ccc(OC)cc1 (centres undefined)
    0.67, i, -8%, 4.1, -0.3, -27, 1, 2, -3.3
#36 C[C@H]1CCCCO[C@H](CN(C)C(=O)Nc2cccc3ccccc23)[C@@H](C)CN([C@@H](C)CO)C(=O)c2cc(NC(=O)c3ccncc3)ccc2O1
    ., i, ., ., 2.6, ., -1, -1, 2.5
#37 COc1ccc(CCCC(=O)NC2CCCCC2)cc1
    0.65, ., 0%, 0.4, ., -13, ., ., .
#38 CC(=O)Oc1ccc2c(=O)c(Oc3ccccc3)coc2c1OC(C)=O
    0.62, ., ?, -4.2, ., 99*, ., ., .
#39 O=C(CN1C(=O)C2C3CCC(C3)C2C1=O)OCC(=O)c1ccccc1 (centres undefined)
    0.72, i, 2%, 3.6, -8.2, -1, 6, 16, -1.4
#40 CC(CN1CCCC1)OC(=O)c1cccc(F)c1 (centres undefined)
    0.68, i, ., -2.9, 0.4, -8, 7, 10, -4.0
#41 C=CCNc1nc(S(=O)Cc2ccc(C)cc2)nc2c1CCCC2 (centres undefined)
    0.69, i, ., -0.7, -3.4, -5, -17, -24, -3.2
#42 CCN1CCN(C(=O)c2c(-c3ccccc3)noc2C)CC1
    0.61, i, ., -1.0, -1.7, -2, 3, 17, -0.4
#43 CCOC(=O)c1c(C)n(C)c2ccc(O)c(CN(CC)CC)c12
    0.7, ., 3%, -8.0, ., 18, ., ., .
#44 COc1ccc(NC(=O)CN2C(=O)NC3(CCCC3)C2=O)cc1
    0.68, i, ., -3.0, 0.5, -2, 10, 15, -1.3
#45 COCC(=O)Nc1ccc2c(c1)[C@H]1C[C@@H](CC(=O)NCc3cccnc3)O[C@H](CO)[C@H]1O2
    ., i, ., ., -0.9, ., 5, 1, 0.1
#46 Cc1nn(Cc2ccccc2)c(Cl)c1C(=O)NCc1ccco1
    0.7, ., 6%, -3.2, 0.0, ., 6, 18, -0.2
#47 Cc1csc(NC(=O)c2c(-c3c(F)cccc3Cl)noc2C)n1
    0.72, i, -6%, -0.9, 2.8, 3, -3, -5, -3.6
#48 O=C(NCCC1CCCCN1S(=O)(=O)c1cccs1)C(=O)Nc1ccccc1 (centres undefined)
    0.7, i, ., -0.4, -1.2, -2, -12, -21, 3.2
#49 O=C(c1ccc2c(=O)n(C3CCCC3)c(=S)[nH]c2c1)N1CCCCCC1
    0.71, i, -7%, 2.2, -0.9, ., -28*, -1.6*, -6.6*
#50 Cc1nn(C(=O)CNC(=O)c2ccccc2)c(C)c1C
    0.66, i, ?, -2.4, -1.1, ., 4, 3, 1.0
#51 C[C@@H]1CN([C@H](C)CO)S(=O)(=O)c2ccc(/C=C/c3ccccc3)cc2O[C@H]1CN(C)C(=O)Nc1ccc(F)cc1
    ., i, ., ., 2.0, ., 6, 7, 3.9
#52 Nc1ncnc(NC2CCS(=O)(=O)C2)c1[N+](=O)[O-] (centres undefined)
    0.69, i, -7%, -2.7, 2.7, -4, 12, 8, 1.9
#53 CN(C)c1ccc(/C=C/c2nc3ccccc3c(=O)n2CCO)cc1
    0.68, i, ., 113, 0.8, ?, 22, 16, 17
#54 COc1ccc(C(CNC(=O)c2cncc(Br)c2)N(C)C)cc1 (centres undefined)
    0.73, i, 30%, 3.0, 0.1, -1, 13, 8, 0.4
#55 CCC(C)c1ccc(O)c(NC(=S)NC(=O)c2cccs2)c1 (centres undefined)
    ., i, 3%, 1.9, 18, ., -55, -78, -19
#56 Cc1cc(C)nc(SCc2ccc(C(=O)NN=C3CCCC3)cc2)n1
    0.7, ., 5%, 0.8, -16, -33, -6, -7, 0.8
#57 CC(=O)NCCC(=O)N1CCc2c([nH]c3ccccc23)C1c1cccc(C)c1 (centres undefined)
    0.69, i, 3%, -5.9, 5.3, ., -21, -18, -3.2
#58 C[C@@H]1CCCCO[C@H](CN(C)CC2CC2)[C@@H](C)CN([C@H](C)CO)C(=O)c2cc(NC(=O)CCC(F)(F)F)ccc2O1
    ., i, ., ., 1.1, ., 0, 8, -1.8
#59 COc1ccc(-c2coc3cc(OC)cc(O)c3c2=O)cc1
    ., ., 9%, -3.1, ., 1, ., ., .
#60 Cc1ccc(N2CC(C(=O)Nc3cccnc3)CC2=O)cc1C (centres undefined)
    0.7, i, ., 2.1, -0.9, -4, 2, 3, -3.1
